# Assay outcomes from PubChem.
# Bead autofluor: compound fluorescence in toxin protease inhibitor counterscreen | compound autofluorescence counterscreen, microsphere flow cytometry; active compounds read high | fluorescence intensity (concentration not given with the values) | 360,000 tested, 3.1% active | AID 624483;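 active = at least 3 SD above the mean of all compounds, about 16000 in these data; inconclusive = too few beads counted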;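 note: 100 nL of 1 mM stock went into each well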
# Mtb hypoxia inh: PubChem AID 1159583. M. tuberculosis hypoxia-regulated fluorescent reporter, fluorescence. 300,000 tested, 0.1% active. fluorescence inhibition, % (test concentration not listed);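 active = 35 to 45% if threefold the growth effect, above 45% if 1.5-fold the growth effect; inactive = the rest, general growth blockers included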;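 note: wells of about 50 µL received 100 nL stock; 0% = vehicle wells and 100% = reference inhibitor wells; whole bacteria with a GFP reporter of the hypoxia response; strong numbers were not always called active; many hits fall short of the cut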
# PrP UTR inh: inhibition of PrP 5' UTR reporter expression | 340,000 tested, 0.35% active | inhibition, % (test concentration not listed) | cell-based PrP 5' UTR mRNA reporter, plate reader | AID 488862, 2010;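 active = every replicate at 50% or more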;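 note: 0 = median of the neutral control wells; tested in H4 reporter cells; numbers are from one replicate; inactives centre near -14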
# BJeLR lethal: MLPCN primary cell-based screen for lethality selective to Ras in HRASV12 cells; AID 1554, 2009; 300,000 tested, 0.17% active; inhibition, % (concentration not given with the values); BJeLR (HRASV12) viability, CellTiter-Glo ATP luminescence, 48 h; reference of the scale not given here;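 active = replicate mean above 50%; inconclusive = above 50% but judged a plate artefact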;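 note: 50 nL library stock added to about 25 µL; numbers are from one replicate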
# Sa RN4220 lethal: growth inhibition of S. aureus RN4220, primary screen, OD600 | 16 h | inhibition, % (test concentration not listed) | 330,000 tested, 0.33% active;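 active = z-score of -3 or lower and OD600 up to 0.18 on both plates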;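 note: plate controls were untreated cells for no effect and reference antibiotic for full effect; stock transfer was 100 nL into about 80 µL; one replicate is shown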
# ugtP null kill: growth inhibition of ugtP-null S. aureus, primary screen, RN4220 ugtP deletion, OD600; 16 h; some inactives read as strong as hits; growth inhibition, % (no concentration beside the values); 330,000 tested, 0.54% active; AID 1259309, 2017;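 active = z-score under -3 and OD600 up to 0.15 on both plates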;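 note: plate controls were untreated wells for no effect and antibiotic for full effect; wells of about 80 µL received 100 nL stock; the first replicate is given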
# Mtb hypoxia inh growth: second read-out of Mtb hypoxia inh, no call of its own (marks repeat the call); growth inhibition, %; measured here: M. tuberculosis growth (absorbance);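 0% = vehicle and 100% = reference antibiotic; read after six days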
# Active calls of the source: *; ? = inconclusive; . = not tested or not shown.
Compound,Mtb hypoxia inh growth,Sa RN4220 lethal,ugtP null kill,PrP UTR inh,BJeLR lethal,Mtb hypoxia inh,Bead autofluor
c1ccc2[nH]c(SCc3cscn3)nc2c1,12,3.5,2,-43,-3,-3,11906
CC(C)CCNC(=O)NC(=O)COC(=O)/C=C/c1cccc([N+](=O)[O-])c1,8,5.8,4,-17,8,7,4396
Cc1cc(N2CCN(C)CC2)nc2ccc(NC(=O)CCC(=O)NCCC3=CCCCC3)cc12,9,7.4,-9,-13,.,3,21266*
Cc1ccc(C(=O)OCc2nnc(-c3ccccc3)o2)s1,-6,1.7,11,-26,-1,8,?
Cc1ccc(N2C(N)=C(C#N)C(c3cccnc3)C3=C2CC(C)(C)CC3=O)cc1 (configuration not stated),.,2.4,2,-10,1,.,4252
COc1ccc(CN(C)CC(O)COC(c2ccccc2)c2ccccc2)c(OC)c1OC (configuration not stated),6,1.7,3,-14,-3,4,3850
Cn1c(CNC(=O)C(Cc2ccccc2)NC(=O)c2cccc(F)c2)cc(=O)n(C)c1=O (configuration not stated),-7,-6.2,-4,5,4,3,4612
CCC(CC)NC(=O)CSc1nnc(-c2c[nH]c3ccccc23)o1,3,0.7,0,-18,0,6,2288
CCOc1cc(C2C(C(=O)N3CCOCC3)=C(C)NC3=C2C(=O)CCC3)ccc1O (configuration not stated),6,2.7,2,4,-1,2,10415
CCCNC(=O)N1C2CCC1C(C(=O)OC)=C(c1ccc(OC)c(OC)c1)C2 (configuration not stated),5,5.2,-1,.,.,4,.
Cc1c(N2C(=O)/C(=C\c3cccc4ccccc34)SC2=S)c(=O)n(-c2ccccc2)n1C,0,-1.6,-10,-10,1,12,3404
COc1ccc(C2=Nc3ccc(Br)cc3C(c3ccccc3)N2CC(=O)NN)cc1 (configuration not stated),6,5.0,-3,-16,-6,1,7876
CCC1CCCCN1CCCNC(=O)CNC(=O)Cn1ccc2ccccc2c1=O (configuration not stated),-8,2.6,-7,-9,2,-11,9017
CS(=O)(=O)NN1C(=O)c2ccccc2NC1c1cc2ccccc2nc1Cl (configuration not stated),-1,2.5,3,-16,-2,7,2157
COc1cc(NC(=O)c2cnc(N)s2)cc(C(=O)Nc2cccc(C(F)(F)F)c2)c1,-1,5.8,4,.,3,4,3839
O=C(Nc1ccccc1)c1cc2c(=O)c3ccccc3oc2nc1C(F)(F)F,5,5.3,-7,-23,-4,6,8372
Cc1ccc(C(=O)N(CC(=O)NC2CCCC2)c2ccccc2C)s1,10,-3.9,2,28,-11,10,4255
COc1ccccc1N1CCN(C(=O)c2nn(C)c3c2CS(=O)(=O)c2ccccc2-3)CC1,5,2.4,9,-11,-1,4,5712
COc1ccc(NC(=O)CN(C)C(=O)CCNC(=O)Nc2ccccc2)cc1,0,2.6,3,-5,.,-6,?
O=C1/C(=C\c2cc(Br)cc(Br)c2O)SC(=S)N1Cc1ccccc1,1,100*,100*,-5,3,12,3859
CCN(CC)S(=O)(=O)c1cccc(-c2nnc(SC(C)C(N)=O)n2CCc2ccccc2)c1 (configuration not stated),.,5.1,-2,-2,-3,.,4837
OC(CNCc1ccccc1C(F)(F)F)C(F)(F)F (configuration not stated),1,3.7,6,7,-17,4,4411
CCC(C)(C(=O)NC1CCCCC1)N(Cc1ccco1)C(=O)CC1NC(=O)NC1=O (configuration not stated),.,2.8,6,-1,1,.,4686
O=C(COc1ccccc1)Nc1ccccc1C(=O)NC1CC1,1,2.3,3,-11,-22,3,6005
CN=C(Nc1ccccc1)SC1CC(=O)N(c2ccc(C(=O)OC)cc2)C1=O (configuration not stated),7,-4.5,0,-17,-17,-2,4555

# Three of the compounds above, with values under each structure.
# Fields: Mtb hypoxia inh growth	Sa RN4220 lethal	ugtP null kill	PrP UTR inh	BJeLR lethal	Mtb hypoxia inh	Bead autofluor
c1ccc2[nH]c(SCc3cscn3)nc2c1
    12	3.5	2	-43	-3	-3	11906
COc1cc(NC(=O)c2cnc(N)s2)cc(C(=O)Nc2cccc(C(F)(F)F)c2)c1
    -1	5.8	4	.	3	4	3839
Cn1c(CNC(=O)C(Cc2ccccc2)NC(=O)c2cccc(F)c2)cc(=O)n(C)c1=O (configuration not stated)
    -7	-6.2	-4	5	4	3	4612

# (cont.)
Compound,Mtb hypoxia inh growth,Sa RN4220 lethal,ugtP null kill,PrP UTR inh,BJeLR lethal,Mtb hypoxia inh,Bead autofluor
Cc1cc(C)n(N=Cc2ccco2)c(=O)c1C#N,16,3.3,4,.,.,11,.
O=C(c1cc2cc3ccc(Cl)cc3nc2o1)N1CCN(Cc2ccc3c(c2)OCO3)CC1,-6,0.6,-2,2,.,-1,.
CCSc1ncc(Cl)c(C(=O)Nc2ccc(S(N)(=O)=O)cc2)n1,3,-0.1,4,.,6,0,3771
O=C(CSc1nnc(-c2ccncc2)n1-c1ccccc1Cl)Nc1ccc(C(=O)O)cc1,2,-1.1,7,11,-3,9,3713
CC1(C)C(=O)Nc2ccccc2N1C(=O)CN1C(=O)C(=O)N(C2CCCC2)C1=O,6,4.7,-2,-12,-6,2,2467
Cc1ccc(OCCSc2nnc(-c3cccs3)n2C)cc1,14,8.9,-11,-22,-8,3,20327*
O=C1CC(c2ccccc2F)c2c(c3ccccc3[nH]c2=O)O1 (configuration not stated),3,5.4,9,-13,0,11,.
O=C(Cn1c(=O)c(=O)n(Cc2ccccc2)c2ccc(Cl)cc21)Nc1cc(F)ccc1F,12,0.7,-2,.,-16,7,.
COc1cccc(N2CC(NC(=O)C(=O)c3c(C)[nH]c4ccccc34)CC2=O)c1 (configuration not stated),2,-0.2,3,-7,1,-1,6031
Cc1ccc(C(C)NC(=O)C23CC4CC(CC(C4)C2)C3)cc1 (configuration not stated),12,13,4,-8,7,17,3452
Cc1cc(=O)oc2cc(OCC(=O)OCC(=O)N3CCc4ccccc43)ccc12,-14,-16,-9,-4,-4,25,2828
Cc1ccc(CNC(=O)c2nnc(Cc3ccc(Cl)cc3)o2)cc1,1,7.9,3,-26,5,7,4095
COc1ccc(CCn2c(Br)nc3c2c(=O)[nH]c(=O)n3C)cc1,-5,3.1,-1,-70,-5,8,17013*
COc1ccccc1-n1nnnc1SCC(=O)Nc1ccccc1,3,1.5,6,-50,-19,0,3478
Cc1cccc(OCC(=O)NN=Cc2cccn2C)c1C,4,6.4,-4,.,.,9,.
O=C(O)CC(NC(=O)Cc1ccc(Cl)cc1)c1ccco1 (configuration not stated),5,-0.7,4,.,-3,4,.
Cc1cc(-c2ccc(S(=O)(=O)N3CCN(c4ccc(F)cc4)CC3)s2)on1,14,0.4,-4,6,-4,-1,5349
CCOC(=O)c1ccc(S(=O)(=O)N2CCN(C(=O)c3nn(C)c(=O)c4ccccc34)CC2)cc1,6,8.3,6,-18,6,17,3100
COC(=O)c1ccc(-c2nc3cc(Cl)c(N)cc3s2)cc1,.,-0.6,1,25,12,.,2362
CCC1CCCCN1C(=O)COC(=O)c1ccc(S(=O)(=O)N2CCOCC2)cc1 (configuration not stated),10,-9.6,-6,-9,-4,21,3338
Cc1ccc(CSc2nnc(SCC(=O)NN=Cc3c[nH]c4ccccc34)s2)cc1,0,-13,-3,.,.,-6,.
CC(C)Oc1cccc(-c2cc(C(=O)N3CCN(c4ncccn4)CC3)c3ccccc3n2)c1,4,-3.1,23,-48,-2,-8,23367*
Cc1ccc(S(=O)(=O)Nc2ccc(S(=O)(=O)N3CCCC3)cc2)cc1,1,-12,-4,-7,-14,2,2359
COc1ccccc1N1CCN(C(c2cccs2)C(C)NC(=O)c2ccncc2)CC1 (configuration not stated),0,1.9,1,-31,-10,7,3761
Cc1ccc(-c2cc(C(=O)OC3CCOC3=O)c3ccccc3n2)c(C)c1 (configuration not stated),9,18,7,-24,2,13,3819

Compound,Mtb hypoxia inh growth,Sa RN4220 lethal,ugtP null kill,PrP UTR inh,BJeLR lethal,Mtb hypoxia inh,Bead autofluor
COc1cc(Cl)c(C)cc1NC(=O)CSc1nnc(-c2ccccn2)n1Cc1ccco1,2,0.8,-12,-4,10,-5,4319
CN(CC(=O)Nc1ccccc1Cl)C(=O)COC(=O)/C=C/c1cccs1,2,1.2,3,-17,.,8,8083
N=c1c2c(-c3ccccc3)c(-c3ccccc3)n(Cc3ccco3)c2ncn1Cc1ccccc1,15,1.0,-8,-30,3,7,4453
CCc1nnc(NC(=O)CSc2nc3[nH]c(=O)cc(O)c3s2)s1,0,3.2,-1,-11,.,4,3933
COC(=O)c1cc(C(=O)OCC(=O)Nc2ccccc2OC(F)F)cc([N+](=O)[O-])c1,-2,9.2,2,-12,10,13,2518
COc1ccc2nc(NC(=O)c3ccc(NC(=O)C4CCCO4)cc3)sc2c1 (configuration not stated),5,2.9,7,-18,-4,5,3362
CCn1c(CNC(=O)c2cccc(C)c2)nc2ccccc21,7,-19,-9,-17,5,6,5042
CCc1cccc(C)c1NC(=O)CCNC(=O)c1cccc(C)c1,-9,2.9,0,-2,-3,2,4300
CCC(NC(=O)CCc1ccccc1)c1ccccc1 (configuration not stated),18,4.3,3,-5,0,17,3549
COc1ccc(Br)cc1C1Nc2cccc3cccc(c23)N1,.,.,.,-12,-7,.,3875
Cn1ncc(N=Cc2ccccc2O)c1C(=O)Nc1ccccc1,.,0.5,0,-20,-6,.,4142
O=C(Nc1nc(-c2cccs2)cs1)c1ccc(S(=O)(=O)N2CCCC2)cc1,3,-2.8,18,-27,14,9,10502
O=C1N/C(=C/c2cccs2)C(=O)N1Cc1ccc(Br)cc1,8,2.7,10,-14,-1,14,4090
Cc1nc2ccccc2c(=O)n1/N=C/c1ccc2ccccc2c1O,.,.,.,-5,1,.,4252
Cc1ccc(-c2noc(CSc3nnnn3-c3ccccc3)n2)cc1,9,-1.5,5,-17,3,1,10373
O=C(OCc1cccc([N+](=O)[O-])c1)c1ccc[nH]c1=O,0,1.2,9,-10,-7,3,4021
CC1CCCCC1NC(=O)CCCc1nc2ccccc2c(=O)[nH]1 (configuration not stated),4,2.5,4,-9,4,0,10579
O=C(c1cccs1)N1CCN(Cc2ccc3c(c2)OCO3)CC1,.,.,.,-19,2,.,2841
CC(Oc1ccc(Cl)cc1)C(=O)OCC(=O)Nc1ncc(Cl)cc1Cl (configuration not stated),.,1.0,-5,-14,2,.,2090
CC(NC(=S)Nc1ccc([N+](=O)[O-])cc1)c1ccncc1 (configuration not stated),9,3.5,-7,-4,3,6,2683
CCCN1Cc2cccc(C(=O)Nc3cc(OC)cc(OC)c3)c2C1=O,-6,0.9,-3,-13,-9,2,22619*
O=C(CN1CCCC1=O)Nc1ccccc1,.,1.7,4,-6,5,.,2459
O=c1c2ccccc2nc2c3ccccc3c(NCCO)nn12,0,3.6,2,0,1,3,5073
CC(=O)C1=C(O)C(=O)N(Cc2cccnc2)C1c1ccc(Cl)cc1 (configuration not stated),6,0.4,2,-15,8,3,8118
CCOC(=O)Nc1ccc2c(c1)N(C(=O)CCN1CCN(CCO)CC1)c1ccccc1CC2,9,0.1,-3,-45,-7,2,5287

Compound,Mtb hypoxia inh growth,Sa RN4220 lethal,ugtP null kill,PrP UTR inh,BJeLR lethal,Mtb hypoxia inh,Bead autofluor
CCCCNC(=O)CS(=O)Cc1nc(-c2cccc(Cl)c2)oc1C (configuration not stated),11,-13,-5,-31,-14,-3,4699
COC(=O)c1c(-c2cccnc2)csc1NC(=O)c1ccc2c(c1)OCO2,-4,4.6,-1,-54,26,-1,4671
NC(=O)C1(N2CCCCC2)CCN(C(=O)c2ccc(-n3cnnn3)cc2)CC1,12,2.8,1,-7,-1,17,4220
CC(C)(C)CC(C)(C)NC(=O)CSCC(=O)Nc1ccc2ccccc2c1,0,-4.7,-26,-1,-4,-1,8728
CC(=O)N/C(=C\c1ccccc1)C(=O)OCC(=O)NC1CCS(=O)(=O)C1 (configuration not stated),-6,6.5,11,-7,.,14,3811
O=C(NCc1cccs1)c1nc2c(nnn2Cc2ccc(F)cc2)c(=O)[nH]1,0,0.9,-13,3,15,-1,16259*
